Bioassay records deposited in PubChem BioAssay by Broad Institute.
PD-1 reversal: activators reversing PD-1 mediated T-cell inhibition, primary screen, luminescence, primary human CD4 T cells, PD-L1 beads; CellTiter-Glo 96 h; activation, % (concentration not given with the values); 29,000 tested, under 10 active; AID 2316, 2010;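 active means replicate mean of 50% or more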;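 further: 0% = median vehicle wells and 100% = positive control; 100 nL library stock added to about 50 µL; numbers are from one replicate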
MITF inhib: inhibitors of MITF, primary screen, MITF inhibitor project, cell-based, luminescence; inhibition, % (test concentration not listed); 37,000 tested, 0.28% active; TRPM1 promoter luciferase, 24 h; AID 2240, 2010;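 active means most replicates at 85% or more, or half of them and the mean; inconclusive means half reach 85% but not the mean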;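 further: human melanocyte line stably carrying TRPM1 promoter luciferase reporter; 0% = vehicle wells and 100% = a positive control; the first replicate is given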
YB-1 expression: inhibitors of YB-1 gene expression, primary screen, cell-based, fluorescence | U2OS, qRT-PCR YB-1 vs CDIP delta delta Cp, 16 h; active compounds read high; zero = DMSO, each unit about twofold | delta delta Cp (YB-1 minus CDIP) (test concentration not listed) | 30,000 tested, 0.37% active | AID 434959, 2010;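 active means delta delta Cp rounded down to an integer at or above 3, about 3 SD of DMSO wells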;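 further: higher means less YB-1 transcript or more CDIP transcript relative to DMSO; stock transfer was 100 nL into about 100 µL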
Hedgehog inh: Hedgehog pathway signaling inhibitors, primary screen, luminescence, Shh-LIGHT2 cells, Gli-luciferase; Shh-LIGHT2 Gli-luciferase reporter, 30 h; inhibition, % (test concentration not listed); 22,000 tested, 2.1% active; AID 2313, 2010;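 active means replicate mean of 65% or more; inconclusive means mean lower but half the replicates past it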;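 further: pathway switched on by Shh-conditioned medium diluted 1 in 25 in low serum; 100 nL library stock added to about 40 µL; 0% = median of neutral wells and 100% = positive control level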
* marks the source's active call; other numbers are inactive results; ? = inconclusive; nt = not tested or not shown.

SMILES	PD-1 reversal	MITF inhib	YB-1 expression	Hedgehog inh
C[C@H](CO)N1C[C@H](C)[C@H](CN(C)S(C)(=O)=O)Oc2ccc(NS(C)(=O)=O)cc2C1=O	nt	16.2	0.692	nt
C[C@@H]1CCCCO[C@@H](CN(C)C(=O)C2CCCCC2)[C@@H](C)CN([C@H](C)CO)C(=O)c2cc(NC(=O)Nc3ccc(C(F)(F)F)cc3)ccc2O1	nt	22.5	0.00148	35.3
O=C(CSc1nnc(-c2ccccc2O)n1-c1ccccc1)NC1CCCCC1	1.1	12.2	nt	nt
COC(Cc1nc2ccccc2s1)C(=O)O (centres undefined)	2.4	-4.0	nt	nt
Cc1noc(C)c1S(=O)(=O)Nc1ccc2c(c1)C(=O)N([C@@H](C)CO)C[C@@H](C)[C@H](CN(C)Cc1ccc(C(=O)Nc3ccccc3N)cc1)O2	-1.6	-16.0	0.0987	nt
CNC[C@H]1Oc2ccc(NS(=O)(=O)c3ccc(Cl)cc3)cc2C(=O)N([C@@H](C)CO)C[C@@H]1C	-0.1	3.4	0.188	-29.4
Cc1ccc(Cl)cc1NC(=O)C(C)NS(=O)(=O)c1ccc(Br)cc1 (centres undefined)	0.0	-8.1	nt	nt
O=C(CSc1nnc(-c2ccco2)o1)N1c2ccccc2CCc2ccccc21	-1.6	29.2	nt	nt
COc1ccc(S(=O)(=O)Nc2ccc3c(c2)C(=O)N([C@@H](C)CO)C[C@@H](C)[C@@H](CN(C)Cc2ccc4c(c2)OCO4)O3)cc1	nt	-4.1	-0.282	nt
O=c1nc2sc3ccccc3n2c(=O)n1-c1ccccc1	0.6	-4.5	-0.346	-217.1
COc1ccc(C(=O)n2nc(-c3ccc(Cl)cc3)nc2NCc2ccco2)cc1	2.2	-103.7	nt	nt
C[C@@H]1CN([C@@H](C)CO)C(=O)c2cccc(NS(=O)(=O)c3ccc(F)cc3)c2O[C@H]1CN(C)Cc1ccccc1	nt	-10.8	-0.111	11.9
COc1ccc(NC(=O)c2ccc3nc(C)c(C)nc3c2)cc1	-1.1	-37.2	0.188	-147.6
C[C@@H]1CN([C@H](C)CO)C(=O)Cc2cc(NS(=O)(=O)c3cccs3)ccc2O[C@H]1CN(C)S(=O)(=O)c1cn(C)cn1	-1.1	-3.4	0.193	-27.9
C[C@@H]1CCCCO[C@H](CN(C)CC2CCCCC2)[C@@H](C)CN([C@H](C)CO)C(=O)c2cc(NC(=O)Nc3ccc(C(F)(F)F)cc3)ccc2O1	-14.1	-11.5	-0.259	37.3
COc1ccc(S(=O)(=O)Nc2ccc3c(c2)C(=O)N([C@@H](C)CO)C[C@@H](C)[C@H](CN(C)C(=O)Nc2ccc4c(c2)OCO4)O3)cc1	1.2	1.8	0.668	nt
O=C(Cn1cnc2sc(-c3ccccc3)cc2c1=O)Nc1cccc(C(F)(F)F)c1	1.1	-12.8	nt	nt
Cc1c(CO)c2ccccc2n1Cc1ccccc1C#N	-5.4	13.7	nt	nt
Cc1ccc(S(=O)(=O)Nc2cccc3c2O[C@H](CN(C)CC2CC2)[C@@H](C)CN([C@H](C)CO)C3=O)cc1	2.2	-3.1	-0.128	-13.3
C[C@H]1CN([C@@H](C)CO)C(=O)Cc2cc(NC(=O)Nc3cccc4ccccc34)ccc2O[C@H]1CN(C)Cc1ccncc1	nt	10.9	0.242	22.7
Cc1noc(C)c1NC(=O)Nc1ccc2c(c1)CC(=O)N([C@H](C)CO)C[C@@H](C)[C@@H](CN(C)S(=O)(=O)c1c(C)noc1C)O2	0.7	-3.3	-0.0671	-46.9
NC(=O)c1ccccc1O	nt	-7.2	0.00269	-8.1
C[C@H](CO)N1C[C@H](C)[C@H](CN(C)S(C)(=O)=O)Oc2ccc(NC(=O)c3ccncc3)cc2C1=O	nt	-1.5	-0.00604	nt
C[C@H](CO)N1C[C@H](C)[C@@H](CN(C)CC2CC2)Oc2c(NC(=O)NC3CCCCC3)cccc2C1=O	-0.7	8.5	0.0617	11.3
CC(C)NC(=O)N(C)C[C@@H]1OCCCC[C@@H](C)Oc2ccc(NS(C)(=O)=O)cc2C(=O)N([C@H](C)CO)C[C@@H]1C	0.2	18.2	-0.166	10.5
Nn1c(-c2ccccc2)nc2ccccc2c1=O	0.4	1.4	-0.068	-12.2
Cc1ccc(Oc2ncccc2NC(=O)c2ccc(Cl)cc2Cl)c2c1CCC2	0.5	10.8	-0.00435	4.2
C[C@@H]1CN([C@H](C)CO)C(=O)c2cccc(NS(=O)(=O)c3cn(C)cn3)c2O[C@H]1CN(C)Cc1ccccc1	-2.6	15.4	-0.0883	18.2
CC1=C(C(=O)Nc2ccccc2C)C(c2ccccc2OCc2ccccc2)n2ncnc2N1 (centres undefined)	-0.3	3.1	nt	nt
C[C@@H]1CN([C@H](C)CO)C(=O)Cc2cc(NC(=O)Nc3ccc4c(c3)OCO4)ccc2O[C@@H]1CN(C)C(=O)Nc1ccc2c(c1)OCO2	0.9	18.4	-0.0455	8.6
C[C@@H]1CN([C@H](C)CO)C(=O)Cc2cc(NC(=O)C3CC3)ccc2O[C@@H]1CN(C)S(=O)(=O)c1ccc(F)cc1	-0.3	-17.2	0.246	-13.2
O=C(O)c1ccc2nc(-c3ccccc3)c(-c3ccccc3)nc2c1	1.1	-45.1	0.305	-87.6
C[C@H](CO)N1C[C@H](C)[C@@H](CN(C)C(=O)Nc2ccccc2)Oc2ccc(NC(=O)Nc3ccc(F)cc3)cc2C1=O	nt	-5.1	0.121	-153.2
C[C@H](CO)N1C[C@H](C)[C@H](CN(C)Cc2ccc3c(c2)OCO3)Oc2ccc(NC(=O)Nc3ccc(F)cc3)cc2CC1=O	0.9	5.5	-0.284	0.5
CN(CCc1ccc(Cl)c(Cl)c1)CC(O)COc1ccc(NS(C)(=O)=O)cc1 (centres undefined)	nt	0.2	-0.251	47.8
COC(=O)Cc1csc(Nc2c(C)n(C)n(-c3ccccc3)c2=O)n1	0.6	-1.0	nt	nt
CCc1ccccc1OCC(=O)Nc1ccc(C)cc1[N+](=O)[O-]	-0.3	-40.9	nt	nt
C[C@@H]1CN([C@@H](C)CO)C(=O)c2cc(NS(=O)(=O)c3ccccc3)ccc2O[C@H]1CN(C)S(=O)(=O)c1cccs1	nt	-10.2	0.187	-16.4
Cc1ccc(S(=O)(=O)Nc2ccc3c(c2)CC(=O)N([C@@H](C)CO)C[C@@H](C)[C@@H](CN(C)S(=O)(=O)c2ccc(F)cc2)O3)cc1	-0.2	-2.4	-0.102	-14.1
C[C@@H]1CN([C@H](C)CO)C(=O)c2cc(NC(=O)Nc3ccc(F)cc3)ccc2O[C@H]1CN(C)C(=O)Nc1ccc(C(F)(F)F)cc1	-3.1	4.5	-0.453	12.3
C[C@H](CO)N1C[C@H](C)[C@H](CN(C)Cc2ccc(C(=O)O)cc2)Oc2ccc(NS(C)(=O)=O)cc2C1=O	nt	-0.3	0.151	nt
CNC[C@H]1Oc2c(NS(C)(=O)=O)cccc2C(=O)N([C@H](C)CO)C[C@@H]1C	2.1	-7.2	0.471	?
CC(C)N1CC=C2C(C1)C(c1ccccc1)C(C#N)=C(N)C2(C#N)C#N (centres undefined)	-0.2	-4.0	-0.174	49.7
O=C(Nc1ccccc1C(=O)N1CCOCC1)C1COc2ccccc2O1 (centres undefined)	1.1	-5.9	nt	nt
C[C@H](CO)N1C[C@H](C)[C@H](CN(C)S(C)(=O)=O)Oc2ccc(NC(=O)C3CC3)cc2C1=O	nt	3.2	-0.126	nt
COc1ccc(S(=O)(=O)N(C)C[C@H]2Oc3ccc(NC(=O)C4CCCCC4)cc3CC(=O)N([C@@H](C)CO)C[C@@H]2C)cc1	nt	-6.4	0.136	-37.1
C[C@H]1CN([C@@H](C)CO)C(=O)Cc2cc(NS(=O)(=O)c3cn(C)cn3)ccc2O[C@H]1CN(C)C(=O)NC1CCCCC1	2.8	-14.8	-0.00227	-25.4
CCC(=O)c1ccc(OCC(O)Cn2nc(C)c(Br)c2C)cc1 (centres undefined)	-0.8	-19.6	nt	nt
Cc1ccc(S(=O)(=O)N(C)C[C@H]2Oc3c(NC(=O)Nc4cccc5ccccc45)cccc3C(=O)N([C@H](C)CO)C[C@@H]2C)cc1	0.2	-13.0	-0.697	-13.8
Cc1cc(C)n2c(SCc3c(C)noc3C)nnc2n1	1.6	-5.4	nt	nt
COc1ccc(NC(=O)Nc2ccc3c(c2)C(=O)N([C@H](C)CO)C[C@@H](C)[C@@H](CN(C)Cc2ccc(C(F)(F)F)cc2)O3)cc1	0.6	24.3	-0.0604	nt
N#CC1=C(N)C(C#N)(C#N)C2(C(=O)N(Cc3ccccc3)c3ccccc32)C2CCCC=C12 (centres undefined)	-5.7	36.7	0.0388	nt
Cc1ccc(S(=O)(=O)Nc2ccc3c(c2)C(=O)N([C@H](C)CO)C[C@H](C)[C@H](CN(C)C(=O)c2ccccc2)OCCCC[C@@H](C)O3)cc1	1.3	-9.8	0.344	21.2
C[C@H]1CN([C@@H](C)CO)C(=O)Cc2cc(NC(=O)CCC(F)(F)F)ccc2O[C@@H]1CN(C)Cc1ccc(C(=O)O)cc1	3.3	-9.1	-0.00649	2.2
C[C@@H]1CN([C@@H](C)CO)C(=O)Cc2cc(NC(=O)C3CCCCC3)ccc2O[C@@H]1CN(C)S(=O)(=O)c1cn(C)cn1	0.3	-9.7	0.217	-13.6
COc1ccc(Nc2ncnc3c2nnn3Cc2ccccc2Cl)c(OC)c1	0.5	-46.7	-0.296	nt
O=C(COc1ccc2oc3c(c2c1)CCCC3)Nc1cccnc1	1.4	-4.3	nt	nt
CCSc1nc(O)c(C(C)CC)c(=O)[nH]1 (centres undefined)	1.0	7.7	-0.172	5.2
C[C@H](CO)N1C[C@H](C)[C@H](CN(C)Cc2ccc(C(F)(F)F)cc2)Oc2ccc(NC(=O)NC3CCCCC3)cc2CC1=O	0.2	10.2	-0.173	-13.2
C[C@@H]1CN([C@@H](C)CO)C(=O)c2cccc(NS(=O)(=O)c3ccc(F)cc3)c2O[C@H]1CN(C)S(=O)(=O)c1cn(C)cn1	0.8	4.7	-0.303	-27.9

Record cards, from the list above. Order of values: PD-1 reversal, MITF inhib, YB-1 expression, Hedgehog inh
Results for CCSc1nc(O)c(C(C)CC)c(=O)[nH]1 (centres undefined) → 1.0, 7.7, -0.172, 5.2
Results for C[C@@H]1CN([C@@H](C)CO)C(=O)Cc2cc(NC(=O)C3CCCCC3)ccc2O[C@@H]1CN(C)S(=O)(=O)c1cn(C)cn1 → 0.3, -9.7, 0.217, -13.6
Results for COc1ccc(NC(=O)Nc2ccc3c(c2)C(=O)N([C@H](C)CO)C[C@@H](C)[C@@H](CN(C)Cc2ccc(C(F)(F)F)cc2)O3)cc1 → 0.6, 24.3, -0.0604, nt
Results for C[C@H]1CN([C@@H](C)CO)C(=O)Cc2cc(NC(=O)CCC(F)(F)F)ccc2O[C@@H]1CN(C)Cc1ccc(C(=O)O)cc1 → 3.3, -9.1, -0.00649, 2.2

(further entries)
SMILES	PD-1 reversal	MITF inhib	YB-1 expression	Hedgehog inh
C[C@H]1CN([C@@H](C)CO)C(=O)c2cc(NS(=O)(=O)c3ccc(F)cc3)ccc2O[C@H]1CN(C)S(=O)(=O)c1cn(C)cn1	0.6	5.9	0.186	nt
C[C@@H]1CN([C@H](C)CO)C(=O)c2cccc(NC(=O)c3ccc(-c4nccs4)cc3)c2O[C@H]1CN(C)Cc1ccc(-c2ccccc2)cc1	-1.8	7.6	0.172	16.1
CC(NC(=O)CC(c1ccccc1)c1ccccc1)c1ccccc1 (centres undefined)	-0.3	-4.1	-0.2	?
COc1ccc(CN(C)C[C@@H]2Oc3ccc(NC(=O)Nc4ccccc4)cc3CC(=O)N([C@H](C)CO)C[C@H]2C)cc1	-0.2	-5.7	0.275	-42.7
Cc1noc(C)c1NC(=O)Nc1ccc2c(c1)C(=O)N([C@H](C)CO)C[C@H](C)[C@H](CN(C)S(=O)(=O)c1ccc(Cl)cc1)O2	0.3	-9.3	-0.571	-23.2
CSc1n[nH]c(NS(=O)(=O)c2ccc(Cl)cc2)c1-c1ccccn1	-0.5	9.7	0.369	-7.8
CC(C)=CCc1cc2c(c(CC=C(C)C)c1O)O[C@H](c1ccc(O)cc1)[C@@H](O)C2=O	-1.3	-13.1	0.304	23.2
C[C@H](CO)N1C[C@H](C)[C@H](CN(C)S(=O)(=O)c2ccccc2)Oc2ccc(NS(=O)(=O)c3ccc(Cl)cc3)cc2CC1=O	2.4	-12.0	-0.0316	-36.7
Cc1ccc(S(=O)(=O)N(C)C[C@H]2Oc3c(NC(=O)Nc4ccc5c(c4)OCO5)cccc3C(=O)N([C@@H](C)CO)C[C@H]2C)cc1	-2.3	10.1	0.0194	-7.4
Cc1ccc(S(=O)(=O)N(c2cc(C)nn2C)S(=O)(=O)c2ccc(C)cc2)cc1	-0.8	4.2	-0.901	nt
C[C@@H]1CN([C@H](C)CO)C(=O)c2cccc(NC(=O)Nc3ccc(F)cc3)c2O[C@@H]1CN(C)C	nt	-0.1	-0.228	27.5
Cn1c(SCC(=O)c2ccc3c(c2)Cc2ccccc2-3)nnc1-c1cccc(N)c1	1.5	-6.5	nt	nt
CC(=O)c1cccc(NC(=O)CN2C(=O)c3ccccc3S2(=O)=O)c1	2.5	22.9	nt	nt

Not all compounds are listed (hit frequency here may not be typical).
